Assay outcomes deposited in PubChem by several laboratories.
HNF4A DNA FP: change in binding of human HNF4 alpha to DNA; HNF4a-FITC DNA binding, fluorescence polarization, 1 h; 360,000 compounds, 0.3% hits; activity change, % at 10 µM; P41235; in the data active = activity change above about 30%, passing the limit was not always enough;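 also: controls were the assay level and a saturating level of protein; the project sought stronger binding though the title names inhibitors; some compounds called inactive have numbers as strong as hits; positive values seem to mean higher polarization but the record does not say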
Target sequence (P41235 whole entry, looked up): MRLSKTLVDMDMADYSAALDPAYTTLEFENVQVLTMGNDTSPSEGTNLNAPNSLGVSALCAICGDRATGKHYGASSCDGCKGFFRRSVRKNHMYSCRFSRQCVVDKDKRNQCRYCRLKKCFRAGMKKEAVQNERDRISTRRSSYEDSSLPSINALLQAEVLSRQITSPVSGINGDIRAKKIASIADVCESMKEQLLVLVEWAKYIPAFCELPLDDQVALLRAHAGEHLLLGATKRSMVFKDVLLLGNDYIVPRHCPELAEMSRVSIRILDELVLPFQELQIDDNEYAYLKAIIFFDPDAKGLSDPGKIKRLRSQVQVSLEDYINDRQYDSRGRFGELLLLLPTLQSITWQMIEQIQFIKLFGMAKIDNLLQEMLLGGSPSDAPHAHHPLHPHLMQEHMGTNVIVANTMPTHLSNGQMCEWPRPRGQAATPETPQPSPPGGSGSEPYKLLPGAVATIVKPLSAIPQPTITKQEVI
FGF22 binding: binders of recombinant human FGF22 by thermal shift | Q9HCT0 | SYPRO orange fluorescence; percent of sucrose octasulfate shift, DMSO zero | calls only at 9.99 µM | 340,000 compounds, 1.5% hits | AID 651658;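 active = melting point raised past a set limit in the mean and every replicate; three in four hits are not shown here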
Ecoli rRNA inh: inhibitors of bacterial rRNA selective over humanized ribosomes; E. coli WT GFP vs humanized-ribosome RFP mutants, fluorescence, 24 h; stronger effect = lower value; DMSO median 0, no signal -100; GFP signal change (wild-type ribosome), % (no concentration beside the values); 350,000 compounds, 1.6% hits;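 active = significant combined selectivity score with lowered wild-type GFP, culture density cut under 30%, mutant RFP and density less affected; inactive = any of these conditions unmet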; also: one replicate is shown; some compounds called inactive have numbers as strong as hits
ALR H2O2 inh: inhibitors of human sulfhydryl oxidase ALR. AID 485317. purified ALR, DTT oxidation, H2O2 HRP-luminol luminescence. P55789. inhibition, % (no concentration beside the values). 290,000 compounds, 3.8% hits;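 active = mean and each replicate at 75% or more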;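 also: stock transfer was 7.5 nL into about 7.5 µL; 0% = neutral wells and 100% = wells with inactivated enzyme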
E coli growth: inhibitors of Escherichia coli growth; OD600, 23 h; stronger effect = lower value; OD600 absorbance (no concentration beside the values); 330,000 compounds, 0.21% hits;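 active = OD600 absorbance below the run mean of sample wells minus 3.6 SD, in any replicate, cut at about 0.56 in these data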;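 also: stock transfer was 300 nL into about 60 µL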
B2AR ag: activates human beta-2 adrenergic receptor causing internalization | 340,000 compounds, 0.43% hits | response, % (test concentration not listed) | Am2.2-beta2AR cells, FAP receptor internalization, flow cytometry; reference of the scale not given here;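 active = response above a set limit, near 3 SD of response in nonfluorescent compounds, cut at about 42% in these data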;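 also: stock transfer was 100 nL into about 11 µL; a reference agonist was the positive control; negative values mostly stem from fluorescent compounds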
Target sequence (P07550 whole entry, looked up): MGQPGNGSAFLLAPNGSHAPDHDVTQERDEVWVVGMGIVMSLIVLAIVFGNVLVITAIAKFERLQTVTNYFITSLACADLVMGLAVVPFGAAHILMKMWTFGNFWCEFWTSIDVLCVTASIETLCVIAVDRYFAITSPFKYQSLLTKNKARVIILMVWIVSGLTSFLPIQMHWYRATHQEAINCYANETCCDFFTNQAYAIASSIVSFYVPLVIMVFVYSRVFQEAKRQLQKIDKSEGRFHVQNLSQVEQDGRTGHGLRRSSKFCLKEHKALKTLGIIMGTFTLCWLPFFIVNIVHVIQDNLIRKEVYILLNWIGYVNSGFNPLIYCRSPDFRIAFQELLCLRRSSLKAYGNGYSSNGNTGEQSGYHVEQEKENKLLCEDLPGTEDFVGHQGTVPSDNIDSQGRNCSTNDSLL
UCH37 inh: inhibitors of human deubiquitinating enzyme UCH37 | purified proteasome/UCH37, Ub-AMC cleavage fluorescence | inhibition, % (no concentration beside the values) | 330,000 compounds, 0.33% hits | Q9Y5K5;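 active = mean of two replicates above 20%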;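 also: 0% = compound-free wells with enzyme and 100% = wells lacking proteasome; stock transfer was 100 nL into about 20 µL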
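Material: human UCH37 enzyme supplied as purified proteasome complex. Measure: % inhibition of Ub-AMC cleavage fluorescence. Medium: pH 7.4 Tris-HCl (50 mM) with ovalbumin, ATP-MgCl2, DTT. Times: 30 min preincubation with enzyme, 25 min cleavage at room temperature. Detection: AMC fluorescence intensity at 355/460 nm.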
Ecoli rRNA inh OD600: further read-out of Ecoli rRNA inh, marked with its call; OD600 change, %; measured here: OD600 growth;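 optical density of the mix in the first replicate; 0 = DMSO median and -100 = no signal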
Ecoli rRNA inh RFP: also measured in Ecoli rRNA inh; calls as there; RFP signal change, %; measured here: RFP humanized mutant strains;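 first replicate; 0 = DMSO median and -100 = no signal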
An asterisk follows results filed as active; i = inactive; nt = not tested or not shown.

compound,Ecoli rRNA inh OD600,ALR H2O2 inh,Ecoli rRNA inh,UCH37 inh,E coli growth,FGF22 binding,HNF4A DNA FP,B2AR ag,Ecoli rRNA inh RFP
COc1ccc(OC)c(/C=N/NC(=O)c2ccc(Cn3cc([N+](=O)[O-])cn3)o2)c1,19,0,11,nt,nt,i,2.5,1,7.6
COc1ccc(NC(=O)C2CC(=O)N(c3ccccc3C)C2)c(OC)c1 (stereo unspecified),14,-23,10,0.6,0.67,i,0.3,7,-0.3
Cc1ccc(S(=O)(=O)NNC(=O)c2snnc2C)cc1,nt,23,nt,1.6,0.71,nt,-2.3,-4,nt
CSc1ccc(/C=N/N(C)S(=O)(=O)c2ccc(C)cc2)cc1,11,-3,14,nt,nt,i,0.5,-2,1.1
COC(=O)c1ccc2nc(-c3ccccc3)c(Cc3cccc(F)c3)n2c1,-52,nt,-27,nt,nt,i,3.7,nt,-7.1
COc1cccc(C(=O)C2CCCN(C(=O)CCc3scnc3C)C2)c1 (stereo unspecified),-5,-10,-12,-1.1,0.7,i,2.3,4,4.2
CCOC(=O)c1c(C)[nH]c(C)c1C(=O)COC(=O)/C=C/c1ccc(OC)cc1,10,nt,8,2.4,0.65,i,-4.4,0,-0.4
Cc1ccc2nc(SCC(=O)c3ccc(Cl)cc3)nc(=O)n2c1,7,-5,13,-22,0.7,i,-0.3,-3,2.8
CCN(CC)C(=O)c1ccc(C(=O)Nc2ccc(F)cc2)cc1,1,nt,1,2.7,0.66,i,0.3,-8,-2.9
CC(C)COC(=O)Nc1nnc(SCc2ccccc2F)s1,nt,-1,nt,2.3,0.66,nt,2.6,2,nt
CCN1CCN(C(=O)c2cc3c(=O)n(C)c4ccccc4c3n2C)CC1,-1,-10,-7,4.2,0.77,i,5.6,7,0.3
CCN(c1ccc(OC)cc1)S(=O)(=O)N1CCCC(C(=O)NCc2ccccc2Br)C1 (stereo unspecified),-28,-2,-25,2.3,0.74,i,-1.1,-1,-2.4

Rewritten with two lines to a compound: three of the compounds above.
Values in the order – Ecoli rRNA inh OD600	ALR H2O2 inh	Ecoli rRNA inh	UCH37 inh	E coli growth	FGF22 binding	HNF4A DNA FP	B2AR ag	Ecoli rRNA inh RFP
- COc1ccc(NC(=O)C2CC(=O)N(c3ccccc3C)C2)c(OC)c1 (stereo unspecified)
    14	-23	10	0.6	0.67	i	0.3	7	-0.3
- CCN(CC)C(=O)c1ccc(C(=O)Nc2ccc(F)cc2)cc1
    1	nt	1	2.7	0.66	i	0.3	-8	-2.9
- Cc1ccc(S(=O)(=O)NNC(=O)c2snnc2C)cc1
    nt	23	nt	1.6	0.71	nt	-2.3	-4	nt

Other records.
compound,Ecoli rRNA inh OD600,ALR H2O2 inh,Ecoli rRNA inh,UCH37 inh,E coli growth,FGF22 binding,HNF4A DNA FP,B2AR ag,Ecoli rRNA inh RFP
CCc1ccc(NC(=O)c2sc3nc4n(c(=O)c3c2C)CCC4)cc1,2,-2,-4,7.1,0.68,i,-3.9,2,-2.8
O=C(COC(=O)c1ccco1)Nc1ccc2[nH]c(=O)[nH]c2c1,3,nt,1,0.0,0.68,i,-0.4,-1,-2.6
CCOC(=O)C1CCN(CC(=O)N2C(C)CCCC2C)CC1 (stereo unspecified),nt,-2,nt,1.8,0.73,nt,1.4,-4,nt
CCOC(=O)C1=C(Cc2ccc(F)cc2)C(=O)c2ccccc2C1=O,nt,64,nt,-81,0.59,nt,-2.3,-168,nt
CCOC(=O)NC(N(O)c1cccc(Cl)c1)C(Cl)(Cl)Cl (stereo unspecified),-13*,nt,-28*,4.9,0.7,i,-2.9,-3,-4.8*
CN(C)C(=O)CSc1nnc(-c2ccc(F)cc2)c2ccccc12,-2,-6,2,9.6,0.66,i,-1.3,-1,-2.8
Cc1cc(C(=O)CSc2nc(N)cc(=O)[nH]2)c(C)n1CCc1ccc(Cl)cc1,nt,3,nt,4.2,0.74,nt,5.4,8,nt
Cc1ccccc1C(=O)NCC(=O)OCCCOC(=O)CNC(=O)c1ccccc1C,11,-3,4,1.5,0.68,i,1.6,-12,-1.2
Cc1cccc(C)c1NC(=O)C(c1ccc(C(F)(F)F)cc1)n1c(=O)c(-c2ccco2)nc2ccccc21 (stereo unspecified),4,nt,0,nt,nt,i,27,nt,13
Cc1ccc(C)c(N2CCN(S(=O)(=O)c3c(C)noc3C)CC2)c1,-22,-1,-16,4.9,0.71,i,1.1,3,-3.2
CCc1ccc(OCC(=O)NCc2ccco2)c(Br)c1,-7.9*,nt,-21*,3.2,0.63,i,1.5,11,-2.0*
Cc1cc(NS(C)(=O)=O)c(=O)n(Cc2cccc(F)c2)c1,3,nt,11,-10,0.72,i,1.6,-1,3.3
CC(Oc1ccc(-c2ccccc2)cc1)C(=O)N/N=C/c1cccnc1 (stereo unspecified),-45,-9,4,nt,nt,i,1.2,0,-6.8
CCOC(=O)[C@]12CCCC=C1N(Cc1ccco1)C(=O)[C@H](CC(=O)NCc1ccccc1)C2,-1,nt,-3,nt,nt,i,0.7,nt,2.0
COC(=O)c1ccccc1NC(=O)C(=O)NCc1ccncc1,-5,5,7,3.2,0.67,i,0.2,31,-1.2
Cn1c(=O)c2c(nc(CN3CCOCC3)n2CCc2ccccc2)n(C)c1=O,nt,30,nt,0.6,0.72,nt,-3.6,-10,nt
CC(C)NC(=O)C1=NN(c2ccccc2)C(=O)CC1,15,2,8,-1.2,0.7,i,0.8,2,12
COc1cc(/C=N/NC(=O)c2c(C)nc3ccc(Cl)cn23)cc(OC)c1OC,5,8,-3,nt,nt,i,-1.2,6,0.9
COC(=O)c1ccccc1NC(=O)Cn1c(=O)oc2ccc(Cl)cc21,nt,-7,nt,3.8,0.67,nt,2.5,-4,nt
O=C(NCCCO)C(=O)Nc1ccc2c(c1)N(S(=O)(=O)c1cccs1)CCC2,-6,nt,0,-0.3,0.71,i,-0.2,-4,-0.5
COc1ccccc1Cc1c(-c2ccc(OC)c(OC)c2)nc2c(Cl)cc(C(F)(F)F)cn12,3,nt,0,nt,nt,i,5.8,nt,0.8
COc1c(C)cc(Br)cc1C(=O)Nc1ccccc1N1CCN(C(=O)c2ccccc2)CC1,10,2,6,1.8,0.7,i,-2.2,-17,0.1
CC(OC(=O)c1ccccn1)C(=O)Nc1ccc2c(c1)OCCO2 (stereo unspecified),nt,-4,nt,-0.7,0.71,i,-1.5,-8,nt
CN(CC(=O)Nc1ccccc1Cl)C(=O)CCSc1ccc(F)cc1,-11,1,-7,-0.2,0.66,i,-2.3,-7,-0.6
CC(C)N(C)NC(=S)Nc1ccccc1,nt,21,nt,6.2,0.67,nt,-1.5,1,nt
O=C(CN1C(=O)C2CC=CCC2C1=O)Nc1nc2ccc(F)cc2s1 (stereo unspecified),-14,98*,-18,3.3,0.72,i,4.8,5,-0.1
COc1cc(C2SCC(=O)N2CCN2CCCCC2)ccc1O (stereo unspecified),13,20,22,3.5,0.68,i,3.3,-8,0.7
Cc1cccn2c(=O)nc(SCC(=O)N3CCCCCC3)nc12,4,1,2,-0.1,0.67,i,-0.5,-1,-0.1
COc1ccc(/C=N/NC(=O)CNC(=O)COc2ccccc2)cc1,nt,1,nt,nt,nt,nt,3.5,1,nt
COc1c2ccccc2c(OC)c2ccccc12,0,-22,-2,-126,0.73,i,-1.7,4,-0.4
O=C(N/N=C/c1ccccn1)c1cc(-c2ccccc2)nc2ccccc12,-10,-1,-15,nt,nt,i,-3.5,7,0.9
O=C(NCCN1CCCCC1)c1cc(COc2c(F)cccc2F)on1,11,6,7,1.3,0.58,i,2.0,4,-0.5
CCn1nc(C)c(NC(=O)/C=C/c2cnn(C)c2)c1C,nt,-2,nt,6.5,0.69,nt,0.4,-5,nt
Cc1c(NC(=O)COC(=O)Cc2ccc(Br)cc2)c(=O)n(-c2ccccc2)n1C,6,1,11,0.2,0.67,i,-0.9,-1,-4.2
COC(=O)Cn1cnc2ccccc2c1=O,nt,-1,nt,4.7,0.77,nt,-2.6,-1,nt
O=C(NCCCNC(=O)c1ccccc1Br)c1ccccc1Br,10,-3,23,6.3,0.69,i,-1.2,-8,-1.8
Cn1c(=O)c2[nH]c(CCCCCCCCc3nc4ccccc4[nH]3)nc2n(C)c1=O,-16,nt,-1,-0.6,0.69,i,1.1,-14,-1.4
Cc1cccn2cc(-c3c[nH]c4ccccc34)nc12,10,98*,2,-286,0.63,i,-2.7,-15,-1.7
Cc1c(CCC(=O)N2CCC[C@H]2C(=O)O)c(=O)oc2c(C)c3oc4c(c3cc12)CCCC4,nt,24,nt,-39,0.72,i,4.8,-14,nt
O=c1[nH]ncc2c3ccccc3n(Cc3ccc(F)cc3)c12,nt,-8,nt,5.3,0.69,nt,3.8,-12,nt
CCNc1c(NC(=O)c2cccs2)c(=O)oc2ccccc12,6,nt,2,2.6,0.67,i,-0.8,2,-3.5
CC(=O)C1=C(O)C(=O)N(Cc2ccco2)C1c1ccc2c(c1)OCO2 (stereo unspecified),-3,0,12,6.6,0.63,i,-1.0,12,-1.1
CC1CN(CC(O)COC(c2ccccc2)c2ccccc2)CC(C)O1 (stereo unspecified),-6,-1,-6,1.7,0.65,i,2.6,1,-1.5
Cc1ccccc1CNC(=O)Nc1cccs1,5,1,1,0.2,0.69,nt,-0.1,-2,5.7
COc1ccc(N2CCN(C(=O)CCC(=O)N3CCOc4ccc(C)cc43)CC2)cc1,-22,97*,-9,3.5,0.71,i,-0.5,1,1.4
O=C(Nc1nccs1)c1ccc(CSc2ccccc2)o1,-42,6,-30,2.0,0.66,i,1.0,-7,4.2
O=C1c2ccccc2C(=O)N1CCN1CCOCC1,2,nt,5,0.8,0.67,i,3.1,-2,0.0
COc1ccc(/C=C/C(=O)c2ccc(C(=O)/C=C/c3ccc(OC)c(OC)c3)cc2)cc1OC,10,nt,8,-0.7,0.69,i,13,26,4.5
CCc1ccc2[nH]c3nc(N/N=C/c4ccc(O)cc4O)nnc3c2c1,-9,nt,-20,nt,nt,i,-3.3,11,-3.4

An excerpt. The share of hits here may be higher or lower than overall.
